Screening data from PubChem.
VDR inh: Inhibitors of the vitamin D receptor (VDR): qHTS | Vitamin D3 receptor (Homo sapiens), P11473 | VDR-SRC2-3 peptide fluorescence polarization, 2 h | Potency, µM, without a hit: max response, negative = inhibition, hits mostly inhibitors | 0.93% of 400,000 active | AID 504847, 2011; active means well fitted inhibition curve with a large enough effect; inconclusive means small, poorly fitted or top-dose-only effect, or another doubt; inactive means no such curve, though single readings can be large or run the other way; further: series mostly up to about 120 µM
Target sequence (P11473 whole entry, looked up): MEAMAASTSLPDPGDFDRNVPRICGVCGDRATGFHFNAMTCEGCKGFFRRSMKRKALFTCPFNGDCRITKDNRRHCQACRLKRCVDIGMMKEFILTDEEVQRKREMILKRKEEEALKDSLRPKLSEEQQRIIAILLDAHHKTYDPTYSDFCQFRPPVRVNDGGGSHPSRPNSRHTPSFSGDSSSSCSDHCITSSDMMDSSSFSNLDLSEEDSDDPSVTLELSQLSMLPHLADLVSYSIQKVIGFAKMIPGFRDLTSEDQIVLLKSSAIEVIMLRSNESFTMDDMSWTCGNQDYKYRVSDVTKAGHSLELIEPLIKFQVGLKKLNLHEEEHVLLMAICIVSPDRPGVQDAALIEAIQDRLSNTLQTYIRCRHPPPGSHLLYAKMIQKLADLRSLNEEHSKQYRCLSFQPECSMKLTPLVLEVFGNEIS
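Reagent solutions, kept cold and dark, are dispensed first; compounds are then pinned in at 23 nl, plates briefly spun, and incubated 2 h at ambient temperature. Inhibition of VDR–SRC2-3 peptide binding is read by fluorescence polarization.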
Numbers without * were called inactive; ? = inconclusive; & = joins results of further samples; [ ] = remark or other dose. On the % scale 0 is the no-effect control and ±100 the full control effect; potency means the concentration at half of the fitted maximal effect.

VDR inh	SMILES
-4%	CCCc1cc(=O)oc2cc(C)cc(OCC(=O)NC3CCN(Cc4ccccc4)CC3)c12
-1%	COc1ccc(C(=O)NC(=S)N2CCN(c3ccccc3OC)CC2)cc1OC
-9%	O=C(NNC(=O)c1ccc(Cl)c(S(=O)(=O)Nc2ccc(Cl)cc2)c1)c1ccc(=O)[nH]c1
-2%	COCCNC(=O)CCN1N=C(c2ccccc2)CCC1=O
36%[activator]	COc1ccc(CN2CCC3CC2c2cc(-c4cccc(C)c4)ccc23)cc1 (configuration not stated)
-12%	C/C=C/c1ccc(OCC(=O)OCC2=C(C(=O)OCC)C(C)NC(=O)N2)c(OC)c1 (configuration not stated)
19%	CC/C=C/[C@@H](c1ccccc1)[C@H](C)C(O)CC(=O)SC(C)(C)C (some centres not stated)
3%	Cn1cncc1C#Cc1c(C=O)n(C)c2ccccc12
17%	COc1ccc(NC(=O)CN2C(=O)COc3ccc(S(=O)(=O)N4CCOCC4)cc32)c(OC)c1
11%&-3%	CC1CC(C)(C)NC(=S)O1 (configuration not stated)
-3%	NC(=O)CC(NC(=O)Cc1ccc(Br)cc1)c1ccc(N2CCN(c3ccccc3)CC2)c([N+](=O)[O-])c1 (configuration not stated)
6%	CC/C(=N/N=C(/CC)c1ccc(O)cc1)c1ccc(O)cc1
-10%	Cc1ccc(-n2nnnc2-c2ccccc2)cc1
0%	O=C(c1ccco1)c1cc2c(ccc3ccccc32)oc1=O
-6%	COc1ccc(CC(=O)N2CCOCC2)cc1
1%	CCC/C(C(=O)NCCO)=C1/c2ccccc2C(=O)N1c1ccccc1
-19%	CCc1ccc(-c2cc(C)no2)cc1S(=O)(=O)NC(C)Cc1ccco1 (configuration not stated)
12%	NS(=O)(=O)c1cccc(NC(=O)COC(=O)Cn2cnc3ccccc32)c1
17%	Cc1ccc(NC(=O)CN(C)CC(=O)NC2CCCc3ccccc32)cc1 (configuration not stated)
-12%	CC1CN(CCCCOc2ccc(Cl)c3ccccc23)CC(C)O1 (configuration not stated)
1%	O=C(COc1ccccc1C(=O)O)Nc1ccc(SC(F)F)cc1
-6%	CC(C)(C)c1ccc(-c2nc(-c3ccncc3)no2)cc1
-12%	Cc1ccc(C(C)C)cc1S(=O)(=O)Nc1cccnc1
3%	COc1ccc(/C=C(\C#N)C(=O)OCCNC(=O)c2ccncc2)cc1
-1%	O=C(CN1CCN(C/C=C/c2ccccc2)CC1)Nc1ccc(F)cc1F
-1%	CN(Cc1ccccc1)C(=O)c1ccc2c(c1)N(Cc1ccc(Cl)cc1)C(=O)c1ccccc1S2=O (configuration not stated)
-24%	CCCCN(C(=O)CN1C(=O)C2CCCCC2C1=O)c1c(N)n(Cc2ccccc2)c(=O)[nH]c1=O (configuration not stated)
1%	CCN(CC)S(=O)(=O)c1ccc(NS(=O)(=O)c2cccc(C)c2)cc1
-2%	Cc1cccn2c(=O)c3cc(C#N)c(=O)n(CCCN4CCOCC4)c3nc12
2%	CCOC(=O)C(Cc1ccc(NC(C)=O)cc1)N1C(=O)c2ccccc2C1=O (configuration not stated)
9%	COc1cc(=O)n(C)c2ccccc12
8%	COc1ccc(C(=O)c2ccc(OC)c(OC)c2)cc1
-2%	Cc1nnc2ccc(-c3cccc(NC(=O)c4ccc(Br)o4)c3)nn12
1%	Cc1ccc(S(=O)(=O)c2ccsc2NC(=O)c2ccccc2)cc1
17%	Cc1ccccc1CC(=O)N1CCCc2ccccc21
-8%	Cc1ccc2cccc(NC(=O)C(C)(C)Oc3ccc(Br)cc3)c2n1
7%	COc1cccc2cc(S(=O)(=O)c3ccc(C)cc3)/c(=N/NS(=O)(=O)c3ccc(C)cc3)oc12
-14%	CCN1C[C@@H]2[C@@H]3C(=O)N(C)C(=O)[C@@H]3[C@](C)(C1=O)N2C(=O)c1ccc(Br)cc1
-12%	C=CCCN(Cc1ccc(OC)cc1)S(=O)(=O)c1ccccc1Br
16%	CN(C)c1nc(C(=O)NN)nc(N(C)C)n1
14%	O=C(CN(C(=O)CNC(=O)c1ccco1)c1cccc(F)c1)NC1CCCCC1
-12%	CCCCC(=O)Nc1ccc(C(=O)NNC(=O)c2cccs2)cc1
-4%	COc1cc(OC)cc(C(=O)Nc2ccc(NC(=O)c3ccco3)c(C)c2)c1
5%	CC1CCN(c2ccc3nnc(CCC(=O)N4CCN(c5ccccc5F)CC4)n3n2)CC1
-1%	COc1cc(NC(=O)COC(=O)C2CC(O)CN2S(=O)(=O)c2ccc(Cl)cc2)c(C)cc1[N+](=O)[O-] (configuration not stated)
1%	COc1cc(OC)cc(C(=O)NCC(=O)NCCN2C(=O)S/C(=C\c3ccc4c(c3)OCO4)C2=O)c1
11%	CC1CCCN(C(=O)C(=O)Nc2ccc3nc4n(c(=O)c3c2)CCCCC4)C1 (configuration not stated)
3%	CCc1cccc(-n2nnc(-c3nc(-c4cccs4)no3)c2N)c1
-3%	Cc1ccc(OCC(=O)N2CCc3ccccc3C2)cc1
9%	CCOC(=O)C1CCN(C(=O)c2nn(-c3ccc(C)cc3)c(=O)n(C)c2=O)CC1
11%	COc1ccc(-c2nn(-c3ccccc3)cc2C(=O)OCC(=O)c2ccc(C)c([N+](=O)[O-])c2)cc1
-12%	CCCCNC(=O)C1CC(c2cccc(F)c2)=NO1 (configuration not stated)
-12%	CCOc1ccccc1NC(=O)CSc1nc2ccccc2c(=O)n1CC1CCCO1 (configuration not stated)
-2%	CCN(C(=O)C(C)Sc1ccc(S(=O)(=O)N2CCN(C)CC2)cn1)c1ccccc1 (configuration not stated)
-18%	CCOC(=O)N1CCC(NC(=O)c2ccc3c(c2)N=C(CC)c2cc(C)ccc2S3)CC1
-2%	O=S(=O)(c1ccc(Cl)c(S(=O)(=O)N2CCCC2)c1)N1CCCC1

(more compounds)
VDR inh	SMILES
-10%	C/C(=N\Nc1cc(N2CCOCC2)nc(C)n1)c1ccc(F)cc1
-26%	COCCN(C(=O)COC(=O)c1ccc2[nH]c(C)c(C)c2c1)c1c(N)n(Cc2ccccc2)c(=O)[nH]c1=O
?	Cn1cccc1C(=O)OCC(=O)N1CCc2ccccc21
-11%	CCC(C(=O)Nc1cccnc1)c1ccccc1 (configuration not stated)
-4%	O=C(O)c1cccc(Nc2ncnc3ccccc23)c1
4%	O=C(NCC1CCN(Cc2ccccc2F)CC1)Nc1ccc(F)c(Cl)c1
-13%	O=c1[nH]ncc2c3ccccc3n(Cc3cccc(Cl)c3)c12
18%	Cc1ccc(C)c(NC(=O)c2cnc(N3CCCC3)nc2C)c1
?	O=C1c2cccc3c(O)ccc(c23)C(=O)N1Cc1ccco1
-5%	CCCCC[C@H]1CN(Cc2ccccc2)C(=O)[C@@H]1CC(=O)NCc1ccc(OC)cc1
-26%	Cc1cccc(OCC(=O)NCCc2nc3ccccc3[nH]2)c1C
-6%	O=[N+]([O-])c1cccc(-c2ccc(CN3CCCCC3)o2)c1
11%	O=S(=O)(NCCc1csc(-c2cccnc2)n1)c1cc(F)ccc1F
2%	CCOCC(=O)N1CCC(Cc2ccccc2)CC1
4%	Cc1ccc(S(=O)(=O)N2CCOC2CNC(=O)C(=O)NCc2ccc3c(c2)OCO3)cc1 (configuration not stated)
-26%	CC(=O)C1=C(O)C(=O)N(CCc2c[nH]c3ccccc23)C1c1cccc(O)c1 (configuration not stated)
-19%	O=C(CC1CS(=O)(=O)CC1CC(=O)Oc1ccccc1F)Oc1ccccc1F (configuration not stated)
-10%	CN(C)S(=O)(=O)c1ccc(-c2csc(-c3cccnc3)n2)cc1
-28%	O=c1c2cc(Cl)ccc2[nH]c(=S)n1Cc1ccccn1
21%	CCCCc1nn2c(=O)cc(COC(=O)c3ccc(NC(=O)c4ccccc4C)cc3)nc2s1
-1%	CC(O)c1nc2ccccc2n1C/C=C/c1ccccc1 (configuration not stated)
-9%	Cc1ccc(S(=O)(=O)c2nc(S(C)(=O)=O)sc2N2CC(C)OC(C)C2)cc1 (configuration not stated)
-7%	CC(c1nnc(Sc2nnnn2-c2ccccc2)n1-c1ccc(F)cc1)N(C)C (configuration not stated)
3%	Cc1sc2ncnc(OCC(=O)N3CCN(S(=O)(=O)c4ccccc4)CC3)c2c1C
-6%	CCOC(=O)c1cc(-c2ccccc2C)nn1Cc1cc(C)no1
30%[activator]	COc1ccc(S(=O)(=O)N2CCCN(C)CC2)cc1
-12%	CSc1ccccc1OCc1cc(C(=O)N(C)Cc2ccc3nsnc3c2)no1
-29%	COC(=O)c1cccc(C23CC4(C2)[C@H](CN(Cc2cccnc2)[C@@H]4c2ccccc2)C3c2ccc(Cl)nc2)c1 (some centres not stated)
-10%	CC(=NCCc1ccccc1)C1=C(O)C(c2ccccc2)OC1=O (configuration not stated)
-24%	COC(=O)c1cc2c([nH]c1=O)CCCC2=O
-6%	Cc1ccc(C(=O)CSc2nc(C)cc(=O)[nH]2)cc1
3%	COCCNC(=O)C(c1ccncc1)N(C(=O)Cn1nnc2ccccc21)c1ccc(OC)cc1 (configuration not stated)
-6%	CCCCCn1c(CNC(=O)c2ccc(F)cc2)nc2ccccc21
7%	CCOc1ccc2c(S(=O)(=O)O)cccc2c1[N+](=O)[O-]
-13%	O=C(C1=C(O)C(=O)N(CCN2CCOCC2)C1c1cccs1)c1cc2ccccc2o1 (configuration not stated)
25%	CCOc1ccc(C(=O)COC(=O)c2c(-c3ccccc3)noc2C)cc1
8%	Cn1c(=O)c2c(SCC(=O)NCc3ccco3)nc(-c3cccc(F)c3)nc2n(C)c1=O
4%	CCCc1cc(=O)n2[nH]c(NC(=O)c3ccccc3Cl)nc2n1
-7%	O=c1oc(-c2cccs2)nc2sc3c(c12)CCCCC3
-4%	C(=C\c1ccccc1)/CSc1ccccn1
-15%	CC(=O)NC(CCS(C)(=O)=O)C(=O)Nc1cccc(Cl)c1Cl (configuration not stated)
17%	Fc1ccccc1N1CCN(C2CCN(Cc3c[nH]c4ccccc34)CC2)CC1
1%	COc1ccc(CCNC(=O)CCCn2c(=O)c3ccccc3n(CC(=O)Nc3c(C)cc(C)cc3C)c2=O)cc1OC
-20%	Cc1ccc(NC(=O)c2ncn(CCCNCC3CCCO3)n2)cc1C (configuration not stated)
-14%	Cc1ccc(-c2nc3cccnc3s2)cc1NS(C)(=O)=O
-7%	COc1ccc(-c2nc(C(N)=O)c3[nH]c(=O)n(-c4cccc(C)c4)c3n2)c(OC)c1
-2%	COc1ccc(N(C(=O)c2snc(C(N)=O)c2N)C(C(=O)NC2CCCC2)c2cccs2)c(OC)c1 (configuration not stated)
24%	O=C(CN1C(=O)NC2(CCCCC2)C1=O)N1CCc2ccccc2C1

A different layout for 4 compounds above.
SMILES: CC(=NCCc1ccccc1)C1=C(O)C(c2ccccc2)OC1=O (configuration not stated)
  VDR inh: -10%

SMILES: COC(=O)c1cc2c([nH]c1=O)CCCC2=O
  VDR inh: -24%

SMILES: Cc1ccc(C(=O)CSc2nc(C)cc(=O)[nH]2)cc1
  VDR inh: -6%

SMILES: COCCNC(=O)C(c1ccncc1)N(C(=O)Cn1nnc2ccccc21)c1ccc(OC)cc1 (configuration not stated)
  VDR inh: 3%

Returning to the listing, repeating the 6 entries before the break.
VDR inh	SMILES
1%	COc1ccc(CCNC(=O)CCCn2c(=O)c3ccccc3n(CC(=O)Nc3c(C)cc(C)cc3C)c2=O)cc1OC
-20%	Cc1ccc(NC(=O)c2ncn(CCCNCC3CCCO3)n2)cc1C (configuration not stated)
-14%	Cc1ccc(-c2nc3cccnc3s2)cc1NS(C)(=O)=O
-7%	COc1ccc(-c2nc(C(N)=O)c3[nH]c(=O)n(-c4cccc(C)c4)c3n2)c(OC)c1
-2%	COc1ccc(N(C(=O)c2snc(C(N)=O)c2N)C(C(=O)NC2CCCC2)c2cccs2)c(OC)c1 (configuration not stated)
24%	O=C(CN1C(=O)NC2(CCCCC2)C1=O)N1CCc2ccccc2C1
28%	COc1ccccc1NC(=O)COc1ccccc1
1%	CCCOC(=O)C1C2C=CC(C2)C1C(=O)OCC(=O)c1ccccc1 (configuration not stated)
-13%	CCOC(=O)C1CCCN(S(=O)(=O)c2c(C)[nH]c(C)c2C(=O)N2CCCC2)C1 (configuration not stated)
?	CCN(CC)c1ccc(C=C2SC(=S)NC2=O)cc1
13%	COc1ccc(CC(=O)Nc2nnc3n2CCS3)cc1OC
8%	C=CCNc1nc(-c2ccccc2)nc(-n2ccnc2)n1
-8%	Cc1ccc(C(=O)N2CCC(C)CC2)cc1S(=O)(=O)N1CCCCC1
-18%	CCOC(=O)c1ccc(NC(=S)NC2CCCC2)cc1
?	COc1ccc2nc3c(cc2c1)Cn1c-3nc2ccccc2c1=O
-2%	O=C(Nc1cccc2ccccc12)N1CCN(c2ccccc2)CC1
35%[activator]	O=C(Nc1ccc(Br)cc1)C1CC=CCC1C(=O)OCC1CCCO1 (configuration not stated)
14%	O=C(Cn1cc(C(F)(F)F)ccc1=O)N1CCN(S(=O)(=O)c2ccccc2)CC1
?	CCOC(=O)c1ccc(/[N+]([O-])=C/c2ccccc2)cc1

Only part of the results is shown. The share of hits here may be higher or lower than overall.
